Screening results: PubChem BioAssay, several laboratories
PABP FP inh = blocks human PABP binding to poly(A) RNA. actives 1% (n = 290,000). inhibition, % at 35 µM. fluorescence polarization. P11940;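 active = 50% or more with normal probe brightness, or confirmed in later tests; about a fifth of its hits are not listed in these tables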;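 note: calls also rest on retests at 20 µM and on dose response follow-up; controls were probe without protein and protein plus probe with vehicle; some compounds called inactive have numbers as strong as hits; many hits fall short of the cut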
Target sequence (P11940 whole entry, looked up): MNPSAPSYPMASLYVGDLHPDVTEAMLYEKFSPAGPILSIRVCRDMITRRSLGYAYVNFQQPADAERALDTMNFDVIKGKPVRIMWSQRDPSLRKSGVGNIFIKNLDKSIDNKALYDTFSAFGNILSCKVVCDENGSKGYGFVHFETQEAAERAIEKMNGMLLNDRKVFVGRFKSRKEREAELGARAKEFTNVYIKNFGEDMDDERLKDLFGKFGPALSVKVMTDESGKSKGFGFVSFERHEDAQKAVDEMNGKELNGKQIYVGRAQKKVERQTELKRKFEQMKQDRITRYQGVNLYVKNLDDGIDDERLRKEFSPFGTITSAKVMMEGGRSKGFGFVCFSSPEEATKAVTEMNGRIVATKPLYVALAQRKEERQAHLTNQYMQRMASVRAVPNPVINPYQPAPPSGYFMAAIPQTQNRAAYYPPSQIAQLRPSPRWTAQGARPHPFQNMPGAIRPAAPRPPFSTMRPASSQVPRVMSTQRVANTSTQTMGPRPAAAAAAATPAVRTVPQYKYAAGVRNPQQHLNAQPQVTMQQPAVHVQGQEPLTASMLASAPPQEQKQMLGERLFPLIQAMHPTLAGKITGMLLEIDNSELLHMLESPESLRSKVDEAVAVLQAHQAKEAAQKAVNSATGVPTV
Rce1 inh = blocks yeast Ras-converting enzyme; yeast membranes, quenched prenylated peptide cleavage fluorescence; calls only; actives 0.27% (n = 290,000); AID 2563;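 active = fall in fluorescence gain of 50% or more versus controls, with final raw signal at or below 3038400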;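 note: plate controls were neutral control wells for no effect and wells lacking membranes for full effect; tested at 10 µM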
Target sequence (Q03530 whole entry, looked up): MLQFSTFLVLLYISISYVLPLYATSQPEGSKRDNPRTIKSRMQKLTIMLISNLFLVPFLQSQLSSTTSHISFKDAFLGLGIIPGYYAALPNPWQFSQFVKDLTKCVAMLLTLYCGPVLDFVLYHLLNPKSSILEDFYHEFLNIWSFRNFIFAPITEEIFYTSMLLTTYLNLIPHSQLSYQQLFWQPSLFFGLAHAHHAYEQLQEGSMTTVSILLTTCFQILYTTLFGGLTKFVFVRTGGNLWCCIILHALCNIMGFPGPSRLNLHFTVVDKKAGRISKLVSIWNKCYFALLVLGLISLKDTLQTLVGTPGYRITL
MT1-MMP act inh = MT1-MMP (human) activation inhibition; HT1080 RFP-PRO-GFP cells, GFP/RFP ratio fluorescence, overnight; percent of plate control window, DMSO zero; GFP/RFP ratio change, % at 20 µM; actives 0.061% (n = 360,000); AID 651647;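 active = GFP/RFP ratio change of at least 30% with cell ATP level not reduced by more than half and red fluorescence within 50% of control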; note: strong numbers were not always called active
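Read-out: GFP/RFP fluorescence ratio; Test system: RFP-PRO-GFP reporter HT1080 cells; Compound dosing: single-point 20 µM compound, 1% DMSO; Times: overnight compound exposure at 37 °C.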
eIF4H inh = inhibitors of RNA binding by human eIF4H. AID 2012. eIF4H fluorescence polarization binding assay. actives 0.94% (n = 290,000). Q15056. inhibition, % at 35 µM;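 active = 50% or more with normal probe brightness, or confirmed in later tests; about a fifth of its hits are not listed in these tables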;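 note: calls also rest on retests at 20 µM and on dose response follow-up; 0% = protein and probe with vehicle and 100% = probe without protein; strong numbers were not always called active; many hits fall short of the cut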
CSC inhib = blocks cancer stem cells. cancer stem cell-like cells viability, luminescence. inhibition, % at 7.5 µM. actives 1.1% (n = 300,000). AID 2717;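 active = mean at 75% or more and at least half the replicates too; tested in HMLE shEcad cells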;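 note: 0% = median of negative and 100% = median of positive control wells; the first replicate is given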
Env fusion inh = inhibitors of HIV Env-mediated cell fusion. HeLa-JRFL Env/CEM21 cell fusion, luciferase. inhibition, % at 12.3 µM. actives 1.1% (n = 360,000). AID 651610;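 active = mean replicate inhibition score of at least 50 and every replicate individually at or above 50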;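 note: 0% = plate neutral controls and 100% = maraviroc near 300 nM; one replicate is shown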
Yeast UUG start = alters start codon recognition fidelity in yeast | S. cerevisiae UUG-firefly luciferase reporter, luminescence/redox ratio | activity score, % at 18.7 µM | actives 0.13% (n = 350,000) | AID 602363;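 active = replicate mean at a twofold rise or more, about +100% in these data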;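 note: firefly luciferase made from a UUG start codon reports start codon fidelity; reporter light over untreated wells divided by growth signal over untreated wells; some hits fall short of that in this replicate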
eIF4H inh retest = also measured in eIF4H inh; calls as there; inhibition, %; compound at 20 µM; confirmation average;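 mean of two retest wells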
PABP FP inh retest = recorded beside PABP FP inh, whose call it bears; inhibition, %; compound at 20 µM; confirmation repeats;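 mean of two retest wells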
MT1-MMP act inh RFP = recorded beside MT1-MMP act inh, whose call it bears; RFP signal change, %; measured here: RFP expression control read;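 0 = vehicle wells; hits needed this value within 50% of zero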
An asterisk follows results filed as active.

Screening C(=C(c1ccccc1)c1ccccc1)c1ccccn1 returned Rce1 inh inactive, MT1-MMP act inh 1, CSC inhib -16, Env fusion inh 13, Yeast UUG start 2 and MT1-MMP act inh RFP -1.
For CCN1CCN(CC(=O)N2N=C(c3cccs3)CC2c2ccc(C)cc2)C(=O)C1=O (stereo unspecified) the results were PABP FP inh -2, Rce1 inh inactive, MT1-MMP act inh -4, eIF4H inh 1, CSC inhib 1, Env fusion inh 7 and MT1-MMP act inh RFP -1.
`CC(C)c1ccc(NC(=O)CN2C(=O)NC3(CCCCCCC3)C2=O)cc1` gave MT1-MMP act inh 8, Env fusion inh -24, Yeast UUG start 17 and MT1-MMP act inh RFP 6.
`O=C(Nc1cnccn1)Nc1ccc(Cl)cc1Cl` gave PABP FP inh -1, Rce1 inh inactive, MT1-MMP act inh -3, eIF4H inh 7, Env fusion inh -24, Yeast UUG start -15 and MT1-MMP act inh RFP -1.
O=C(NCc1ccncc1)C12CC3CC(CC(Cl)(C3)C1)C2 was read as PABP FP inh 12, Rce1 inh inactive, MT1-MMP act inh -2, eIF4H inh -2, CSC inhib -10, Env fusion inh 14, Yeast UUG start -26 and MT1-MMP act inh RFP 1.
`COc1ccc(N2CCN(C(=O)CSc3ncnc4c3cnn4-c3ccc(OC)cc3)CC2)cc1` gave PABP FP inh -2, MT1-MMP act inh -4, eIF4H inh 2, Yeast UUG start -6 and MT1-MMP act inh RFP -1.
`Cc1nn(-c2ccccc2)c(/N=C/c2ccccc2O)c1-c1ccccc1` gave PABP FP inh 3, Rce1 inh inactive, MT1-MMP act inh 7, eIF4H inh -3, CSC inhib -4, Env fusion inh -24 and MT1-MMP act inh RFP 1.
For C/C(=N/NC(=O)CNC(=O)c1ccco1)c1ccc(Cl)cc1 the results were PABP FP inh 6, Rce1 inh inactive, MT1-MMP act inh -1, eIF4H inh -6, CSC inhib 5, Env fusion inh -4, Yeast UUG start -15 and MT1-MMP act inh RFP 2.
Screening COc1ccc(C2=CC(=O)OC3(CCCC3)O2)cc1 returned PABP FP inh 2, Rce1 inh inactive, MT1-MMP act inh 0, eIF4H inh -4, CSC inhib 2, Env fusion inh -22, Yeast UUG start -21 and MT1-MMP act inh RFP 0.
For O=C(c1cc(F)ccc1F)C1CCCN(C(=O)CCN2CCCCO2)C1 (stereo unspecified) the results were PABP FP inh -2, Rce1 inh inactive, MT1-MMP act inh -1, eIF4H inh 1, CSC inhib 1, Env fusion inh -4, Yeast UUG start 3 and MT1-MMP act inh RFP 1.
For O=C(Nc1ccccc1N1CCCCC1)c1cc(S(=O)(=O)N2CCOCC2)ccc1F the results were MT1-MMP act inh -4, Env fusion inh 22, Yeast UUG start -12 and MT1-MMP act inh RFP -12.
For O=C(CSc1nc(-c2ccccc2)ns1)N1CCOCC1 the results were PABP FP inh 16, Rce1 inh inactive, MT1-MMP act inh 1, eIF4H inh 2, CSC inhib -12, Env fusion inh -7 and MT1-MMP act inh RFP 1.

Two consecutive entries out of the list so far:
Screening C(=C(c1ccccc1)c1ccccc1)c1ccccn1 returned Rce1 inh inactive, MT1-MMP act inh 1, CSC inhib -16, Env fusion inh 13, Yeast UUG start 2 and MT1-MMP act inh RFP -1.
For CCN1CCN(CC(=O)N2N=C(c3cccs3)CC2c2ccc(C)cc2)C(=O)C1=O (stereo unspecified) the results were PABP FP inh -2, Rce1 inh inactive, MT1-MMP act inh -4, eIF4H inh 1, CSC inhib 1, Env fusion inh 7 and MT1-MMP act inh RFP -1.

The list continues:
`C=CCSc1nnc(NC(=O)c2c(CC)noc2C)s1` gave Rce1 inh inactive, MT1-MMP act inh 0, CSC inhib -8, Yeast UUG start -13 and MT1-MMP act inh RFP -1.
For CC(C)n1cnc2c(Nc3ccc(C(=O)O)cc3)nc(Cl)nc21 the results were PABP FP inh -2, Rce1 inh inactive, MT1-MMP act inh -5, eIF4H inh 3, Env fusion inh 10, Yeast UUG start -1 and MT1-MMP act inh RFP 0.
For O=C(CN1CCOCC1)NNC(=O)c1ccc(Cl)cc1 the results were MT1-MMP act inh -2, CSC inhib -21, Env fusion inh -13, Yeast UUG start -10 and MT1-MMP act inh RFP 7.
Cc1nn(S(=O)(=O)c2ccc(Cl)cc2)c(C)c1Sc1ccc([N+](=O)[O-])cc1 was read as PABP FP inh 68, Rce1 inh inactive, MT1-MMP act inh 1, eIF4H inh -8, CSC inhib 7, Env fusion inh 52, Yeast UUG start -7, eIF4H inh retest -6, PABP FP inh retest 1 and MT1-MMP act inh RFP -6.
N#Cc1cnn2ccn(C3OC(CO)C(O)C3O)c12 (stereo unspecified) was read as PABP FP inh 5, Rce1 inh inactive, MT1-MMP act inh -1, eIF4H inh 10, CSC inhib -9, Env fusion inh 2, Yeast UUG start 2 and MT1-MMP act inh RFP -3.
`CCN(CC)c1ccc2cc(C(N)=O)c(=O)oc2c1` gave PABP FP inh 2, Rce1 inh inactive, MT1-MMP act inh -14, eIF4H inh 38, CSC inhib -2, Yeast UUG start 19 and MT1-MMP act inh RFP -1.
Screening Cc1cccc(C(=O)OCC(=O)N2c3ccccc3CC2C)c1C (stereo unspecified) returned MT1-MMP act inh 1, Env fusion inh 19, Yeast UUG start 9 and MT1-MMP act inh RFP -3.
Screening CCOc1cc(NC(=S)NC)c(OCC)cc1NC(=O)c1cccs1 returned PABP FP inh -1, Rce1 inh inactive, MT1-MMP act inh 11, eIF4H inh 5, CSC inhib 3, Env fusion inh 7, Yeast UUG start -11 and MT1-MMP act inh RFP -2.
For CC(C)C(c1nnnn1Cc1ccccc1)N1CCN(Cc2ccc3c(c2)OCO3)CC1 (stereo unspecified) the results were PABP FP inh 4, Rce1 inh inactive, MT1-MMP act inh -5, eIF4H inh 0, CSC inhib 13, Yeast UUG start -11 and MT1-MMP act inh RFP -5.
Screening COc1ccc(/C=C/C2=CC(C)(C)NC(=S)N2)c(OC)c1 returned PABP FP inh 0, Rce1 inh inactive, MT1-MMP act inh -5, eIF4H inh -2, CSC inhib 16, Env fusion inh -24 and MT1-MMP act inh RFP -5.
For COc1ccc2c(c1)CCC/C2=N\NC(=O)c1ccoc1C the results were PABP FP inh -6, Rce1 inh inactive, MT1-MMP act inh 3, eIF4H inh 4, CSC inhib -6, Yeast UUG start -9 and MT1-MMP act inh RFP 6.
Screening Cc1cc(N2CCCC2=O)cc(C)c1S(=O)(=O)Nc1c(C)nn(C)c1C returned PABP FP inh 1, MT1-MMP act inh 1, eIF4H inh 2, CSC inhib -4, Env fusion inh -7, Yeast UUG start 12 and MT1-MMP act inh RFP -1.
COc1cccc(C(=O)N(C)c2nnc(-c3ccncc3)s2)c1 was read as PABP FP inh 6, Rce1 inh inactive, MT1-MMP act inh 7, eIF4H inh 6, CSC inhib -29 and MT1-MMP act inh RFP -3.
Screening COCCCNC(=O)CN1C(=O)COc2ccc(S(=O)(=O)N3CCOCC3)cc21 returned PABP FP inh -3, Rce1 inh inactive, MT1-MMP act inh 0, eIF4H inh -14, Env fusion inh -14, Yeast UUG start -27 and MT1-MMP act inh RFP 6.
For CCN(CC)CCCNC(=O)c1cc2c(=O)n(C)c3ccccc3c2n1C the results were PABP FP inh 12, Rce1 inh inactive, MT1-MMP act inh 4, eIF4H inh 3, CSC inhib 7, Env fusion inh -23, Yeast UUG start -20 and MT1-MMP act inh RFP 5.
Screening Cc1c(NC(=S)NC(=O)CC(C)C)c(=O)n(-c2ccccc2)n1C returned PABP FP inh 6, Rce1 inh inactive, MT1-MMP act inh -1, eIF4H inh -3, CSC inhib 8, Env fusion inh -8 and MT1-MMP act inh RFP 0.
Screening CCOC(=O)N1CCN(C(=O)c2oc3ccc(S(=O)(=O)N4CCCCCC4)cc3c2C)CC1 returned PABP FP inh 9, Rce1 inh inactive, MT1-MMP act inh -1, eIF4H inh 7, CSC inhib -4, Env fusion inh 20, Yeast UUG start 6 and MT1-MMP act inh RFP -10.
Cc1ccccc1-n1c(CSC(=N)N)nc2ccccc2c1=O was read as PABP FP inh 12, Rce1 inh inactive, MT1-MMP act inh -12, eIF4H inh -6, CSC inhib -12, Env fusion inh -99, Yeast UUG start -15 and MT1-MMP act inh RFP 6.
For CCc1ccc(Oc2cc(Cl)nc(N)n2)cc1 the results were PABP FP inh 38, Rce1 inh inactive, MT1-MMP act inh -1, eIF4H inh 1, CSC inhib -5, Env fusion inh -63 and MT1-MMP act inh RFP -3.
`COC(=O)c1sccc1NC(=O)CC1C(=O)NCCN1C(=O)c1ccc(C)c(C)c1` (stereo unspecified) gave PABP FP inh 0, Rce1 inh inactive, MT1-MMP act inh 3, eIF4H inh 2, CSC inhib 5, Env fusion inh 33, Yeast UUG start -3 and MT1-MMP act inh RFP -3.
Screening Cc1ccc(C)c(CN2C(=O)c3ccccc3S(=O)c3ccc(C(=O)NCCCN4CCCC4)cc32)c1 (stereo unspecified) returned PABP FP inh 3, Rce1 inh inactive, MT1-MMP act inh 0, eIF4H inh -8, CSC inhib 10, Env fusion inh 2, Yeast UUG start 7 and MT1-MMP act inh RFP 4.
`COc1ccc(-n2nc(C(=O)NCC(=O)NC3CCCCCC3)c3ccccc3c2=O)cc1OC` gave PABP FP inh -3, Rce1 inh inactive, MT1-MMP act inh 1, eIF4H inh 0, Env fusion inh -7, Yeast UUG start -16 and MT1-MMP act inh RFP -2.
For C/C(=N/NC(=O)CNC(=O)c1ccccn1)c1ccc([N+](=O)[O-])cc1 the results were PABP FP inh 3, Rce1 inh inactive, MT1-MMP act inh 0, eIF4H inh 6, CSC inhib 1, Env fusion inh 11 and MT1-MMP act inh RFP 4.
For Cn1nc(-c2ccc(Cl)cc2)nc2c(=O)n(C)c(=O)nc1-2 the results were PABP FP inh -9, Rce1 inh inactive, eIF4H inh -3, CSC inhib 119* and Yeast UUG start 0.
`CSCCC(C(=O)NCc1cccs1)N1C(=O)c2ccccc2C1=O` (stereo unspecified) gave PABP FP inh 33, Rce1 inh inactive, MT1-MMP act inh -6, eIF4H inh -6, CSC inhib -1, Yeast UUG start -12 and MT1-MMP act inh RFP -3.
For O=C(Nc1ccc(S(=O)(=O)N2CCOCC2)cc1)c1cc(-c2ccccc2O)n[nH]1 the results were PABP FP inh 13, Rce1 inh inactive, MT1-MMP act inh 5, eIF4H inh -2, CSC inhib 2, Env fusion inh 6, Yeast UUG start 0 and MT1-MMP act inh RFP -10.

Gathered by group, the compounds so far containing an aryl methoxy group.
`COc1ccc(N2CCN(C(=O)CSc3ncnc4c3cnn4-c3ccc(OC)cc3)CC2)cc1` gave PABP FP inh -2, MT1-MMP act inh -4, eIF4H inh 2, Yeast UUG start -6 and MT1-MMP act inh RFP -1.
Screening COc1ccc(C2=CC(=O)OC3(CCCC3)O2)cc1 returned PABP FP inh 2, Rce1 inh inactive, MT1-MMP act inh 0, eIF4H inh -4, CSC inhib 2, Env fusion inh -22, Yeast UUG start -21 and MT1-MMP act inh RFP 0.
Screening COc1ccc(/C=C/C2=CC(C)(C)NC(=S)N2)c(OC)c1 returned PABP FP inh 0, Rce1 inh inactive, MT1-MMP act inh -5, eIF4H inh -2, CSC inhib 16, Env fusion inh -24 and MT1-MMP act inh RFP -5.
For COc1ccc2c(c1)CCC/C2=N\NC(=O)c1ccoc1C the results were PABP FP inh -6, Rce1 inh inactive, MT1-MMP act inh 3, eIF4H inh 4, CSC inhib -6, Yeast UUG start -9 and MT1-MMP act inh RFP 6.
COc1cccc(C(=O)N(C)c2nnc(-c3ccncc3)s2)c1 was read as PABP FP inh 6, Rce1 inh inactive, MT1-MMP act inh 7, eIF4H inh 6, CSC inhib -29 and MT1-MMP act inh RFP -3.
`COc1ccc(-n2nc(C(=O)NCC(=O)NC3CCCCCC3)c3ccccc3c2=O)cc1OC` gave PABP FP inh -3, Rce1 inh inactive, MT1-MMP act inh 1, eIF4H inh 0, Env fusion inh -7, Yeast UUG start -16 and MT1-MMP act inh RFP -2.
